Rango release inh: qHTS Assay for Inhibitors of RanGTP induced Rango (Ran-regulated importin-beta cargo) - Importin beta complex dissociation | hit rate 0.071% among 340,000 | Potency, µM (series often up to 46.1 µM), for inactives: top-dose activity change, negative = inhibition | Biochemical FRET Rango-importin beta, RanGTP-induced dissociation | AID 540253, 2011; active means falling FRET ratio curve, often poorly fitted, with flat reads before Ran was added; inconclusive means other falling curves, or compound fluorescence or quenching; inactive means flat or rising ratio curve;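 note: potency is the fitted concentration of half-maximal effect; % of control where 0% means no effect; nearly all actives have a fitted effect of over 45% in size; -100% = wells without RanGTP and RCC1; the record marks most hits as doubtful in a second field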
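FRET read at 45 min, room temperature: inhibitors block the CFP/YFP signal rise when RanGTP (0.6 uM Ran, 2 mM GTP, 0.2 uM RCC1) frees Rango (0.1 uM) from importin beta (0.25 uM). Pre-read after 5 min compound exposure flags interference.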
miR-21 FLuc: qHTS Assay for Modulators of miRNAs and/orActivators of miR-21; Potency, µM (top dose mostly 38.3 µM), inactives show at the highest dose reporter change, positive = more light; HeLa miR-21 FLuc reporter, luciferase, 48 h; 340,000 tested, under 10 active; active = well fitted rising curve with a large enough effect; inconclusive = small, poorly fitted or top-dose-only effect; inactive = no such curve, though single readings can be large or run the other way;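 note: % of control where 0% means no effect; miR-21 action dims this reporter so a rising signal means less miR-21 action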
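HeLa cells stably expressing CMV-driven firefly luciferase with a downstream miR-21 binding sequence, endogenously expressing miR-21, were treated with titrations (up to about 40uM final) for 48 hours at 37 degree Celsius. Luciferase luminescence was read after lysis.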
Rango complex inh: qHTS Assay for Inhibitors of Rango (Ran-regulated importin-beta cargo) - Importin beta complex formation; Importin subunit beta-1 (Homo sapiens), Q14974; Rango CFP/YFP FRET sensor + importin beta, 45 min; Potency, µM (highest dose often 92.2 µM), inactives show at the highest dose inhibition of complex formation; hit rate 0.031% among 340,000; AID 540263, 2011; active = rising FRET ratio curve, often small or poorly fitted; inconclusive = mostly compound fluorescence or quenching in the first reads; inactive = flat curves in all reads;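 note: potency is the fitted concentration of half-maximal effect; 0% = DMSO wells and 100% = buffer wells lacking importin beta; nearly all actives have a fitted effect of over 15% in size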
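FRET biosensor (snurportin 1 IBB flanked by EYFP and cerulean), 50 nM, with compound 5 min, then 0.125 microM importin beta in PBS, 1 mM DTT, 0.02% Tween-20, 0.1% BSA. CFP/YFP ratio read after 45 min at room temperature; pre-read flags interference.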
GLA inh pH 4.5: qHTS Assay for Inhibitors of Human alpha-Galactosidase at pH 4.5. purified enzyme, 4-MU-alpha-Gal fluorescence, pH 4.5. activity change, negative = inhibition, % at 105 µM. 230,000 tested, under 10 active. AID 1467, 2008; inconclusive = small, poorly fitted or top-dose-only inhibition, or a rising curve; inactive = flat fitted curve, though single readings scatter; no compound was filed as active;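 note: 0% = full activity with enzyme and -100% = basal without enzyme; dose as in the result columns while the protocol names 77 µM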
Target sequence (P06280 whole entry, looked up): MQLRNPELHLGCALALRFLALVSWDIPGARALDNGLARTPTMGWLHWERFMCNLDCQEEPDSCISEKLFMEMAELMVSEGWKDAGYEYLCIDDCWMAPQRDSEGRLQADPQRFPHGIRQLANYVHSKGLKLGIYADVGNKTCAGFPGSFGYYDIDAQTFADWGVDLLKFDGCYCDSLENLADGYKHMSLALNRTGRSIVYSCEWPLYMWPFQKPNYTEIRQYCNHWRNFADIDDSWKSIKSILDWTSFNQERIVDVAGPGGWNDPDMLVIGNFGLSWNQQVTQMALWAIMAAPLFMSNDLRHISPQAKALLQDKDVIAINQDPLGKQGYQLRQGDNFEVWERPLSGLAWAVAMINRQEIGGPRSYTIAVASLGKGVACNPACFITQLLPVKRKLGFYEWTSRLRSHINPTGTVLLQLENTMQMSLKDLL
* = called active by the depositor; & = joins results of further samples.

Results for CC(=O)C1=C(NC(=O)c2ccc(C(F)(F)F)cc2)C[C@@H]2[C@H]1C2(C)C ?
Rango release inh: 5%; miR-21 FLuc: -2%; Rango complex inh: -2.5%; GLA inh pH 4.5: -11

What do the screens show for `CCOC(=O)C(=O)c1c(C)cc2ccccn12`?
Rango release inh: -1%; miR-21 FLuc: -33%; Rango complex inh: 1.1%; GLA inh pH 4.5: -2

What do the screens show for `O=[N+]([O-])c1c(N2CCN(CCO)CC2)nc2ccccn12`?
Rango release inh: -16%; miR-21 FLuc: 5%; Rango complex inh: -1.8%; GLA inh pH 4.5: -17

Results for CC(C)(C)C(Cn1ccnc1)NC(=O)c1ccc2nc(C3CC3)oc2c1 (configuration not stated) ?
Rango release inh: -13%; miR-21 FLuc: -9%; Rango complex inh: -1.1%

What do the screens show for `Cc1cc(NC(=O)CSc2nccn2-c2cccc(F)c2)no1`?
Rango release inh: 7%; Rango complex inh: 1.0%

How did CCCCNC(=O)Cn1c(-c2ccc(OC)cc2)noc1=O do in these assays?
Rango release inh: 5%; miR-21 FLuc: -2%; Rango complex inh: -5.1%; GLA inh pH 4.5: 8

Results for COc1ccc(C(O)c2nccn2Cc2ccccc2)cc1OC (configuration not stated) ?
Rango release inh: -6%; miR-21 FLuc: 7%; Rango complex inh: -1.2%; GLA inh pH 4.5: 2

What do the screens show for `CC(C)c1nnc(NC(=O)CCC(=O)NC2CCCc3ccccc32)s1` (configuration not stated)?
Rango release inh: -8%; miR-21 FLuc: -3%; Rango complex inh: inconclusive; GLA inh pH 4.5: 7

Results for CCn1c(SCC(=O)NC2=NCCS2)nnc1C(C)NC(=O)c1ccccc1Br (configuration not stated) ?
Rango release inh: 1%; miR-21 FLuc: 1%; Rango complex inh: 1.3%

What do the screens show for `O=C(O)c1ccccc1C(=O)NCc1c(Cl)cccc1Sc1ccc(Cl)cc1`?
Rango release inh: 22%; miR-21 FLuc: -7%; Rango complex inh: 3.3%

What do the screens show for `Cc1ccc2c(c1)N(CC(=O)NCc1cccnc1)C(=O)CO2`?
Rango release inh: 1%; miR-21 FLuc: -11%; Rango complex inh: 2.6%; GLA inh pH 4.5: -13

How did C[C@H](NC(=O)CCCOc1ccc(Cl)cc1Cl)c1nnc2ccccn12 do in these assays?
Rango release inh: inconclusive; miR-21 FLuc: -1%; Rango complex inh: 0.0%

How did CCCc1cc(=O)oc2c3c(cc(OCC(=O)NCCCn4ccnc4)c12)OC(C)(C)CC3 do in these assays?
Rango release inh: 3%; miR-21 FLuc: -2%; Rango complex inh: 2.8%

How did CC(C)(C)C(=O)Nc1c(Cl)cccc1OC(F)(F)F do in these assays?
Rango release inh: -14%; miR-21 FLuc: 0%; Rango complex inh: 3.2%; GLA inh pH 4.5: -4

Results for CCOC(=O)Cc1csc(N/N=C\c2ccc(N(C)C)cc2)n1 ?
Rango release inh: inconclusive; miR-21 FLuc: -2%; Rango complex inh: -9.1%

What do the screens show for `C/C(=N\NC(=S)NCCc1ccccc1)c1ccc(O)cc1O`?
Rango release inh: -25%; miR-21 FLuc: -9%; Rango complex inh: inconclusive

How did COc1ccc(N(CC(=O)NCCSCc2ccco2)S(=O)(=O)c2ccccc2)cc1 do in these assays?
Rango release inh: -4%; miR-21 FLuc: 1%; Rango complex inh: 1.2%; GLA inh pH 4.5: -10

What do the screens show for `CCOC(=O)c1cc(CC)sc1NC(=O)c1cc(OC)c(OC)c(OC)c1`?
Rango release inh: -13%; miR-21 FLuc: 0%; Rango complex inh: -2.9%; GLA inh pH 4.5: 4

How did Cc1c(C(=O)OC(C)C)sc2nc[nH]c(=O)c12 do in these assays?
Rango release inh: -6%; miR-21 FLuc: -24%; Rango complex inh: -1.3%; GLA inh pH 4.5: 13

What do the screens show for `Cc1ccc(C(=O)O/N=C(/c2nonc2N)N(C)C)cc1`?
Rango release inh: 0%; miR-21 FLuc: 2%; Rango complex inh: -2.2%; GLA inh pH 4.5: 2

What do the screens show for `COc1cccc(Cn2cccc(NC(=O)Nc3ccc(C#N)cc3)c2=O)c1`?
Rango release inh: -3%; miR-21 FLuc: 14%; Rango complex inh: 2.8%; GLA inh pH 4.5: -5

What do the screens show for `CCc1ccc(NC(=O)COC(=O)CCC2CCCC2)cc1`?
Rango release inh: -19%; Rango complex inh: -1.7%

How did O=C(O)c1ccc(CN(c2ccccc2)S(=O)(=O)c2ccccc2)cc1 do in these assays?
Rango release inh: 6%; miR-21 FLuc: 3%; Rango complex inh: -0.4%

How did O=S(=O)(NCCSc1nnc(-c2ccco2)n1-c1ccccc1)c1ccccc1 do in these assays?
Rango release inh: 4%; miR-21 FLuc: 1%; Rango complex inh: 1.3%; GLA inh pH 4.5: 3

How did N#Cc1ccccc1S(=O)(=O)N1CCN(C(=O)CCc2ccccc2)CC1 do in these assays?
Rango release inh: 31%; Rango complex inh: 3.8%

What do the screens show for `CC(C)N(Cc1ccccc1)C(=O)c1cccs1`?
Rango release inh: -7%; miR-21 FLuc: -1%; Rango complex inh: 5.2%

What do the screens show for `O=C(CCNS(=O)(=O)c1ccccc1)N1CCCCCC1`?
Rango release inh: -12%; miR-21 FLuc: -25%; Rango complex inh: -0.3%

Results for O=C(COC(=O)c1ccc(Cl)cc1)NC(=O)NC1CCCC1 ?
Rango release inh: -2%; Rango complex inh: -2.0%

How did Cc1ccccc1NC1=C(Cl)C(=O)OC1OC(=O)c1ccccc1C (configuration not stated) do in these assays?
Rango release inh: 7%; miR-21 FLuc: 8%; Rango complex inh: -0.9%; GLA inh pH 4.5: -12

How did O=C(CSc1cccc2cccc(Cl)c12)OCC(=O)N1CCN(C(=O)c2ccco2)CC1 do in these assays?
Rango release inh: -6%; miR-21 FLuc: -3%; Rango complex inh: 4.6%; GLA inh pH 4.5: -15

How did CC(C)(C)OC(=O)N1CCC(NC(=O)c2nc[nH]c2C(=O)NCc2ccccc2)CC1 do in these assays?
Rango release inh: inconclusive; Rango complex inh: inconclusive

Results for Cc1nc(N2CCN(S(=O)(=O)c3ccccc3)CC2)c2cc(-c3ccccc3)sc2n1 ?
Rango release inh: 1%; miR-21 FLuc: -1%; Rango complex inh: -1.2%; GLA inh pH 4.5: 14

How did CC(/C=C1\SC(=S)N(CCC(=O)Nc2nc(C)cs2)C1=O)=C\c1ccccc1 do in these assays?
Rango release inh: 7%; miR-21 FLuc: -1%; Rango complex inh: -2.1%; GLA inh pH 4.5: -1

Results for COc1cc(CN2CCC(C(=O)N3CCN(c4ccccc4F)CC3)CC2)cc(OC)c1O ?
Rango release inh: 2%; miR-21 FLuc: 0%; Rango complex inh: 4.2%; GLA inh pH 4.5: -6

What do the screens show for `CCOc1cc(C2C(C#N)=C(N)OC3CCCC(=O)C32)ccc1OCCN1CCOCC1` (configuration not stated)?
Rango release inh: 4%; miR-21 FLuc: -2%; Rango complex inh: -3.1%; GLA inh pH 4.5: 5

How did Cc1cc(OCC(=O)NCc2cccnc2)c2c(C)cc(=O)oc2c1 do in these assays?
Rango release inh: 27%; miR-21 FLuc: 0%; Rango complex inh: -0.2%

How did O=S(=O)(NCC1CC1)c1cc(Cl)cc(Cl)c1 do in these assays?
Rango release inh: 0%; miR-21 FLuc: -1%; Rango complex inh: -1.0%

Results for CC(C)NC(=O)CSc1nncn1-c1ccccc1 ?
Rango release inh: -5%; miR-21 FLuc: -7%; Rango complex inh: 4.6%; GLA inh pH 4.5: 12

How did O=C(CN(Cc1cccs1)C(=O)CCC(=O)Nc1nccs1)NCc1ccccc1 do in these assays?
Rango release inh: -2%; miR-21 FLuc: 0%; Rango complex inh: -2.6%; GLA inh pH 4.5: 4

How did CN(C)CCCN1C(=O)c2oc3ccc(F)cc3c(=O)c2C1c1cccnc1 (configuration not stated) do in these assays?
Rango release inh: -16%; miR-21 FLuc: 0%; Rango complex inh: inconclusive; GLA inh pH 4.5: -8

What do the screens show for `CC(=O)N1CCC(N(CCCOC(C)C)C(=O)Nc2ccc(C)c(C)c2)CC1`?
Rango release inh: -10%; miR-21 FLuc: -6%&-4%; Rango complex inh: -2.5%; GLA inh pH 4.5: 3

What do the screens show for `COc1ccc(/C=N/n2c(SC)nnc(C(C)(C)C)c2=O)cc1OC`?
Rango release inh: 9%; miR-21 FLuc: -1%; Rango complex inh: -1.0%; GLA inh pH 4.5: -1

How did CCOC(=O)c1cc2c(=O)n3ccccc3nc2n(C(C)C)c1=NC(=O)c1c(-c2c(F)cccc2Cl)noc1C do in these assays?
Rango release inh: inconclusive; miR-21 FLuc: 11%&-20%; Rango complex inh: inconclusive; GLA inh pH 4.5: -7

How did CC1=CC(C)(C)Nc2ccccc21 do in these assays?
Rango release inh: -1%&-9%; miR-21 FLuc: 27%; Rango complex inh: inconclusive; GLA inh pH 4.5: 2

Results for COc1cccc(C2C3=C(N=c4s/c(=C\c5ccc(OCC(=O)O)cc5)c(=O)n42)c2ccccc2CC3)c1 (configuration not stated) ?
Rango release inh: inconclusive; miR-21 FLuc: -33%; Rango complex inh: inconclusive; GLA inh pH 4.5: 0

What do the screens show for `COc1ccc(C(=O)NC(=S)NNC(=O)COc2ccccc2)cc1`?
Rango release inh: -8%; miR-21 FLuc: 2%; Rango complex inh: -0.2%; GLA inh pH 4.5: 3

How did N#Cc1c(N)n(-c2cccc(C(=O)O)c2)c2nc3ccccc3nc12 do in these assays?
Rango release inh: inconclusive; miR-21 FLuc: -10%; Rango complex inh: inconclusive; GLA inh pH 4.5: inconclusive

How did CCc1nnc(NC(=O)CCC(=O)N2CCN(Cc3cc(Cl)ccc3OC)CC2)s1 do in these assays?
Rango release inh: 19%; miR-21 FLuc: 1%; Rango complex inh: -6.6%; GLA inh pH 4.5: 6

What do the screens show for `CC(=O)Nc1ccc(NC(=O)C(C)OC(=O)CCCN=C2NS(=O)(=O)c3ccccc32)cc1` (configuration not stated)?
Rango release inh: inconclusive; Rango complex inh: -2.7%

Results for O=C(Cn1ncc2c3ccccc3n(Cc3ccccc3)c2c1=O)NCc1ccco1 ?
Rango release inh: 12%; miR-21 FLuc: 4%; Rango complex inh: -1.4%; GLA inh pH 4.5: -3

How did Cc1occc1C(=O)N1CCN(C(=O)C2CCCO2)CC1 (configuration not stated) do in these assays?
Rango release inh: -2%; miR-21 FLuc: 0%; Rango complex inh: 1.4%; GLA inh pH 4.5: 3

What do the screens show for `Cc1cccc(NC(=S)Nc2ccccn2)c1C`?
Rango release inh: -9%; miR-21 FLuc: -6%; Rango complex inh: 2.3%; GLA inh pH 4.5: 2

Results for c1ccc2c(c1)CSc1sccc1C2=C1CCNCC1 ?
Rango release inh: -4%; miR-21 FLuc: 1%; Rango complex inh: 1.3%; GLA inh pH 4.5: 8

What do the screens show for `CCOC(=O)[C@H]1[C@H]2COc3ccc(Cl)cc3[C@@H]2N2C(=O)CN(Cc3ccc(Cl)cc3)C(=O)[C@@]12C`?
Rango release inh: 1%; Rango complex inh: -0.9%

Compound activity deposited in PubChem by National Center for Advancing Translational Sciences (NCATS).

Some of the compounds tested (hit frequency here may not be typical).
